Assay outcomes from PubChem BioAssay.
Arbovirus inh: blocks arbovirus infection | arbovirus infection cell-based antiviral screen | inhibition, % at 10 µM | 200,000 compounds, 0.37% hits;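 active = inhibition from about 30%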;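 note: bluetongue infection of BSR cells; cell survival read as ATP light after 72 h; 0% = infected wells without compound and 100% = uninfected wells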
YopH inh: blocks Yersinia enterocolitica YopH tyrosine phosphatase; fluorescence Ex485/Em525; inhibition, %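 (about 10 µM by stock and volumes)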; 140,000 compounds, 0.16% hits; AID 898;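 active = inhibition of 50% or more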;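 note: controls were vehicle for no effect and minimum signal wells for full effect; inactives centre near -20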
RecA intein inh: Mtb RecA intein splicing inhibition. AID 2221. 290,000 compounds, 0.75% hits. cell-free RecA intein splicing, fluorescence. P9WHJ3. inhibition, %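 (about 9 µM by stock and volumes)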; in the data active = inhibition above about 30%; inconclusive = no clear call, values can overlap the other calls;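 note: 0% = vehicle wells and 100% = reference inhibitor control wells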
Target sequence (P9WHJ3 whole entry, looked up): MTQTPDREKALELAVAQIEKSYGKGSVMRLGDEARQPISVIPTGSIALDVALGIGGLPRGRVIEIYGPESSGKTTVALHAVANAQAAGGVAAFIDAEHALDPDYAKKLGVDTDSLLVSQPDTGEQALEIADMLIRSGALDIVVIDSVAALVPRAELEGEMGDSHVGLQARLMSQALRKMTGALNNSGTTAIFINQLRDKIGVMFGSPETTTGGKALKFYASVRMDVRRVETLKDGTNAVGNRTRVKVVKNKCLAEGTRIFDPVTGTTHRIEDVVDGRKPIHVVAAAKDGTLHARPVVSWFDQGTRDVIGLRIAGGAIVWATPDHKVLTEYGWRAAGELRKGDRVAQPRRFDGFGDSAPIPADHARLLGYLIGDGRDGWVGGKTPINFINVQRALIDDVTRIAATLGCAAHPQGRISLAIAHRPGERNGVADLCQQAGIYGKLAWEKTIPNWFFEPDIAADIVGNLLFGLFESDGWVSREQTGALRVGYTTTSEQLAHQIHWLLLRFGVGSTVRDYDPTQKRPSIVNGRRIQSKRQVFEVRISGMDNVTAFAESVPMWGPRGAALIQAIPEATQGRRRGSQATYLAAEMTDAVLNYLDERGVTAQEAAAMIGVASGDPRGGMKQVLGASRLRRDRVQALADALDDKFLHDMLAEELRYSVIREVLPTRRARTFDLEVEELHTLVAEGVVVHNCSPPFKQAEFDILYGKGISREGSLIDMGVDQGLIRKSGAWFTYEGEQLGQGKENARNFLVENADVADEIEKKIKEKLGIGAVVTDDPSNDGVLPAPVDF
Mtb H37Rv: M. tuberculosis H37Rv growth inhibitors, H37Rv strain (AID 1626); M. tuberculosis H37Rv growth inhibition; higher % means a stronger effect; one-dose inhibition, % at 10 µM; IC50 in µM for titrated hits; 220,000 compounds, 0.95% hits;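 active = confirmed in a dose series; inconclusive = inhibition above 80% but not taken into the dose series; inactive = below 80% or under 30% at every dose of the series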;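 note: bacteria incubated seven days before Alamar blue readout; 0% = bacteria only wells and 100% = bacteria with antibiotic wells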
Mtb betalactam: beta-lactam sensitization of Mtb H37Rv. M. tuberculosis H37Rv growth with meropenem, percent inhibition; hits of this screen are not shown here. inhibition, % at 25 µM. 330,000 compounds, 0.27% hits. AID 434955;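 active = about 74% or more and at least 40 points above the plate without the antibiotic, then above 30% in a dose series; inconclusive = first-round hits that could not be retested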;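 note: growth measured after seven days incubation then overnight dye step; 0% = bacteria only wells and 100% = bacteria with antibiotic; twin plates without the antibiotic show which effects depend on it; some results filed as inactive read as strong as hits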
Arbovirus inh repeat: second read-out of Arbovirus inh, no call of its own (marks repeat the call); inhibition, %; measured here: 10K subset replicate screen; many hits read low in the repeat;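 first of two repeat runs on a subset; 0% = infected and 100% = uninfected wells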
* = called active by the depositor; ? = inconclusive; / = no result given.

Sample of the layout (2 entries):
SMILES | Arbovirus inh | YopH inh | RecA intein inh | Mtb H37Rv | Mtb betalactam | others
O=C(C1CCCN(S(=O)(=O)c2cccc3nsnc23)C1)N1CCC2(CC1)OCCO2 (centres undefined) | -3 | -6 | / | 0% | -2
COc1cccc(C(=O)NCc2ccc3c(c2)OCO3)c1OC | / | / | -2.9 | / | -2

The listing, previewed entries included:
SMILES | Arbovirus inh | YopH inh | RecA intein inh | Mtb H37Rv | Mtb betalactam | others
O=C(C1CCCN(S(=O)(=O)c2cccc3nsnc23)C1)N1CCC2(CC1)OCCO2 (centres undefined) | -3 | -6 | / | 0% | -2
COc1cccc(C(=O)NCc2ccc3c(c2)OCO3)c1OC | / | / | -2.9 | / | -2
COc1ccc2c(c1)NC(c1cc(Cl)cc(Cl)c1O)c1cccn1-2 (centres undefined) | -8 | / | / | -5% | /
CCc1nnc(SCC(=O)N2CCCC(N3CCN(c4ccccc4C)CC3)C2)o1 (centres undefined) | / | / | 1.3 | / | -4
Cc1c(Br)c(O)c(Br)c2sc(=O)oc12 | / | / | / | 3% | 22
Cc1ccc(Cl)cc1N(CC(=O)Nc1cccc(N(C)S(C)(=O)=O)c1)S(C)(=O)=O | 5 | / | -0.3 | 9% | -11
CC(=O)Nc1ccc(S(=O)(=O)Nc2ccc(Nc3ccccc3)cc2)cc1 | / | / | -2.5 | / | 4
O=C(NCCCc1ccccc1)[C@@H]1Cc2ccccc2CN1 | / | / | -1.4 | / | 3
COCCNC(=O)c1c(CS(=O)(=O)c2ccccc2)noc1C(=O)NCc1ccccc1 | / | / | -4.6 | / | -2
CCC(C)NC(=O)CSc1ccc(Cl)cc1 (centres undefined) | -6 | -7 | 4.2 | -9% | -7
COc1ccc2c(c1)C=C(CN1CCC(CO)(CCc3ccccc3)CC1)CO2 | 2 | / | 0.4 | 2% | 3
COc1cc(CN2CCCC(C(=O)Nc3ccccc3Oc3cccnc3)C2)ccc1F (centres undefined) | / | / | -0.9 | / | -5
O=C(Nc1nnc(-c2ccccc2F)s1)c1ccccc1F | / | / | 1.0 | / | 5
Nc1ccc(C(=O)OCc2nc3c(ccc4ccccc43)[nH]2)cc1 | -11 | -11 | 1.9 | 10% | 27
COCCCn1c(=O)/c(=C\c2ccccc2OC(F)F)s/c1=C(/C#N)C(=O)N1CCOCC1 | -1 | / | 2.5 | 2% | -2
Cc1ccsc1C(=O)OCC(=O)NCCC1=CCCCC1 | 4 | -25 | 0.0 | 5% | 6
CC1(C)CN(c2cccc(-c3ccnc4ncnn34)c2)C1=O | -2 | / | 0.2 | 2% | -12
CCOC(=O)N1CCC(N2C(=O)c3ccccc3C2Nc2ccc(S(=O)(=O)N(CC)CC)cc2)CC1 (centres undefined) | 6 | / | 1.8 | 2% | 7
O=C(CCN1C(=O)/C(=C\c2cccs2)SC1=S)Nc1nccs1 | 2 | -10 | 0.0 | 3% | 5
CCCCn1c(SCC(=O)N2CCOCC2)nnc1-c1cccs1 | 2 | -34 | -0.2 | -2% | -4
O=c1[nH]c(SCc2cccc(F)c2)nc2c1CCCC2 | 16 | -26 | 1.8 | 4% | 7
Cc1c(C#N)c2ccccc2n1CC(=O)N1CCc2ccccc2C1 | 1 | 5 | -0.4 | -2% | ? | Arbovirus inh repeat=3
O=C(COc1ccc2ccc(=O)oc2c1)NCCCN1CCCC1=O | / | / | -3.2 | / | 2
O=S(=O)(c1ccccc1)c1cnn2c(C(F)(F)F)cc(-c3ccccc3)nc12 | -3 | -19 | -40 | -6% | -11
CCN(CC)C(=O)CNc1ccc(C(F)(F)F)cc1[N+](=O)[O-] | -3 | -27 | 1.8 | -7% | -6
O=C(c1cccs1)C1CCCN(Cc2nc(Cc3ccccc3F)no2)C1 (centres undefined) | 3 | / | 3.2 | 1% | 4
CCOc1ccccc1NC(=O)C(OC(=O)c1ccccc1NS(=O)(=O)c1cccs1)c1ccccc1 (centres undefined) | -3 | -19 | -1.5 | 1% | 5
Cc1cc(C(=O)Nc2ccon2)ccc1[N+](=O)[O-] | / | / | -1.9 | / | -2
CCC(C(=O)NCCN1CCOCC1)n1nc(C)n2c(cc3sccc32)c1=O (centres undefined) | / | / | -3.4 | / | 2
Clc1ccccc1N1CCN(c2ncnc3nc[nH]c23)CC1 | -22 | -29 | -4.1 | / | 7 | Arbovirus inh repeat=-25
O=C(O)c1cc(-c2ccccc2)n(-c2ccccc2)n1 | 3 | -14 | -1.0 | -8% | -1
Cc1ccc(NC(=O)OCC(F)(F)C(F)F)cc1NC(=O)OCC(F)(F)C(F)F | 16 | -47 | 0.6 | -5% | -1
CC(C)CNC(=S)NC1CC2CCCC(C1)N2C1CCCCC1 (centres undefined) | 14 | / | -0.3 | 14% | -9
CNC(=O)CSc1nc2ccccc2c(=O)n1CCc1ccccc1 | / | / | 1.0 | / | 0
COc1cc(/C=C/C(=O)N2CCc3ccccc3C2)cc(OC)c1OC | / | / | -0.3 | / | 28
CC1CCC2C(=O)N(c3ccc(NC4CCCCC4)c([N+](=O)[O-])c3)C(=O)C2C1 (centres undefined) | -7 | 2 | -5.6 | 5% | 2
CC(Oc1ccc(Cl)cc1)C(=O)Nc1ccc(S(=O)(=O)Nc2nccs2)cc1 (centres undefined) | / | / | -32 | / | -2
CC(CCc1ccccc1)NC(=O)c1ccc(Cl)nc1 (centres undefined) | 0 | -135 | 0.9 | 2% | -3
COc1ccc2c(c1)O[C@H](c1ccc3c(c1)OCO3)[C@@H](OC(=O)N[C@H](C)C1CCCCC1)C2=O | -22 | -13 | -1.4 | / | 42
O=C1C2C3C=CC(C3)C2C(=O)N1CNc1ccccn1 (centres undefined) | 2 | -6 | -2.2 | -14% | -11
O=C(Nc1ccc(F)cc1)c1cc(S(=O)(=O)Nc2ccc(F)cc2)cs1 | -4 | -14 | 0.2 | 2% | 2
Cc1ccc2c(c1)[nH]c1c(=O)n(Cc3ccco3)cnc12 | / | / | 1.0 | 0% | -2
O=Cc1ccc(Oc2nc(Cl)ncc2F)cc1 | / | / | 3.0 | / | -1
CCn1c(-c2ccccc2)c[nH]c1=S | 1 | -133 | -0.5 | 1% | -5
Cc1ccc(Cn2nnc3c(=O)[nH]c(C4CCN(S(=O)(=O)c5ccccc5)CC4)nc32)cc1 | -14 | -42 | -2.4 | -5% | 22
COc1cccc(/C=N/n2cnc3ccccc32)c1OC | -4 | 3 | 0.9 | -7% | 4
O=S(=O)(Nc1ccc2cn[nH]c2c1)c1ccc(Cl)cc1 | / | / | 1.8 | / | 7
C/C(CC(=O)Nc1ccc2c(c1)OCCO2)=N\NC(=O)COc1cccc(C)c1 | / | / | 1.6 | / | 33

Random excerpt: 6 records from the list.
SMILES | Arbovirus inh | YopH inh | RecA intein inh | Mtb H37Rv | Mtb betalactam | others
O=C1C2C3C=CC(C3)C2C(=O)N1CNc1ccccn1 (centres undefined) | 2 | -6 | -2.2 | -14% | -11
Cc1ccc(Cn2nnc3c(=O)[nH]c(C4CCN(S(=O)(=O)c5ccccc5)CC4)nc32)cc1 | -14 | -42 | -2.4 | -5% | 22
O=C(Nc1ccc(F)cc1)c1cc(S(=O)(=O)Nc2ccc(F)cc2)cs1 | -4 | -14 | 0.2 | 2% | 2
CC(CCc1ccccc1)NC(=O)c1ccc(Cl)nc1 (centres undefined) | 0 | -135 | 0.9 | 2% | -3
COc1ccc2c(c1)O[C@H](c1ccc3c(c1)OCO3)[C@@H](OC(=O)N[C@H](C)C1CCCCC1)C2=O | -22 | -13 | -1.4 | / | 42
CC(Oc1ccc(Cl)cc1)C(=O)Nc1ccc(S(=O)(=O)Nc2nccs2)cc1 (centres undefined) | / | / | -32 | / | -2

(further entries)
SMILES | Arbovirus inh | YopH inh | RecA intein inh | Mtb H37Rv | Mtb betalactam | others
CC1(C)CC(=O)C=C(NCC2CCCO2)C1 (centres undefined) | -6 | -28 | -5.4 | -14% | 5
COc1ccc2[nH]cc(CCN3C(=O)c4ccc(C(=O)O)cc4C3=O)c2c1 | / | / | -3.0 | / | 2
ON/C=N/C(=S)Nc1ncc(C(F)(F)F)cc1Cl | 3 | / | -7.3 | 5% | 4
Cc1cc(C)n(-c2ccc(S(N)(=O)=O)cc2[N+](=O)[O-])n1 | 14 | / | 0.3 | 1% | -5
Cc1ccc(NC(=O)C2C3CC4OC(=O)C2C4C3)cc1Cl (centres undefined) | 5 | -17 | -0.7 | 4% | -1
Cc1ccccc1Cn1c(C(=O)OC(C)C)cc2c1ccn2C | -3 | -9 | 4.2 | 0% | -3
O=C(O)CCn1c(C(=O)O)cc2sccc21 | -2 | -24 | -0.5 | -1% | 2
O=S(=O)(Nc1ccc(Cl)cn1)c1ccc(F)cc1 | / | / | -4.2 | / | -3
CCOC(=O)CC(NS(=O)(=O)Cc1ccccc1)c1ccc(C)cc1 (centres undefined) | 2 | -24 | -1.2 | 1% | 3
Cc1csc(NC(=O)CSc2ccc3nnc(-c4ccncc4)n3n2)n1 | -5 | / | -3.7 | 6% | 0
CCOC(=O)Cn1c(=NC(=O)CSC(C)=O)sc2ccccc21 | 0 | -33 | 7.9 | 4% | 1 | Arbovirus inh repeat=-10
COc1nc(C)nc(C)c1Oc1ccc(Cl)cc1Cl | / | / | -0.3 | 13% | -10
Cn1c(CSCc2ccc(Cl)c(Cl)c2)n[nH]c1=S | 8 | -25 | -0.3 | 9% | 4
COC(=O)c1c(C)cc(C)c2c1CC(C)(C)C2=O | / | / | 1.7 | -19% | 2
COC(=O)Nc1ccc(S(=O)(=O)N2CCCc3cccc(O)c32)cc1 | -17 | / | 0.6 | -7% | 1
Cc1nn(-c2ccccc2)c(Oc2ccccc2)c1C=O | 11 | -9 | 1.2 | 8% | -2
C(=C\c1ccccc1)/CN1CCN(Cc2nc(Cc3ccccc3)no2)CC1 | 3 | / | 1.2 | 6% | 2
O=C(Nc1cccnc1)c1ccc(-c2cc(Cl)ccc2Cl)o1 | 1 | / | 3.5 | 3% | -6
O=C(O)CC12CSc3[nH]c(=O)sc3C1c1ccccc1OC2=O (centres undefined) | 2 | 22 | -3.3 | 2% | 3 | Arbovirus inh repeat=0
O=C(Nc1ccccc1)C(=O)Nc1cccnc1 | / | / | -0.5 | -8% | 0
CN1CCC(NC(=O)c2ccncc2)CC1 | 5 | / | 0.6 | 0% | -7
O=C(CN(C(=O)CNS(=O)(=O)c1ccccc1)c1ccc2c(c1)OCCO2)NC1CCCCC1 | 5 | -24 | -0.3 | -2% | -2
Cc1nn(CCC(=O)NCCc2ccccc2Cl)c(=O)c2nn(-c3ccccc3)c(C)c12 | / | / | 0.0 | / | -2
C=CCN1C(=O)c2ccc(C(=O)N(C)CC(=O)Nc3ccccc3C(F)(F)F)cc2C1=O | / | / | -1.6 | / | -3
COc1ccc(CCN(Cc2ccc(C(C)C)cc2)S(=O)(=O)c2ccc(S(=O)(=O)N(C)C)cc2)cc1OC | -1 | -17 | -0.9 | -6% | 10
Cc1cccc(Cl)c1OCCCn1ccnc1 | / | / | 2.1 | / | 1
Nn1c(N2CCCCC2)nc2ccccc21 | -1 | -14 | -1.6 | 14% | -6
CCCc1nnc(SCC(=O)N2C(C)CCCC2C)n1CC1CCCO1 (centres undefined) | 2 | -3 | 2.7 | 2% | -18
CCNC(=S)N1CCN(c2nc(CC)nc3sc4c(c23)CCCC4)CC1 | / | / | 13 | / | 67
CCOCCCn1c(=S)[nH]c2cc(C(=O)NCCc3ccccc3)ccc2c1=O | / | / | -0.1 | / | -1
O=C(NCC(c1ccco1)N1CCCCC1)c1ccc(COc2ccccc2)cc1 (centres undefined) | / | / | 0.0 | / | 16
Cc1cc(F)ccc1S(=O)(=O)N1CCCOC1CNC(=O)C(=O)NCc1ccccn1 (centres undefined) | / | / | 1.5 | / | -4
C=CCn1c(-c2ccc(OC)cc2)nc2nc3ccccc3nc21 | -7 | -12 | -23 | -6% | 3
COc1ccc(S(=O)(=O)N2CCN(Cc3cc(OC)c(O)c(OC)c3)CC2)cc1 | / | / | -4.1 | / | -8
CCCCCN1C2=NCCN2c2ccccc21 | -1 | -3 | / | -5% | -4
CCN(CC)S(=O)(=O)c1ccc2nnn(OCC(=O)Nc3cccc(C#N)c3)c2c1 | 3 | -10 | -2.6 | -1% | -2
CCOC(=O)CSc1nnc(CNC(=O)c2ccc(OC)cc2)n1-c1ccc(OC)cc1 | 14 | -39 | / | -5% | -4
CCOC(=O)C1CN(S(=O)(=O)c2cccs2)c2ccc(CC(=O)OC)cc2O1 (centres undefined) | / | / | -0.7 | / | -10
Cn1nc(C(F)(F)F)c2cc(NC(=O)OCc3ccc(C(C)(C)C)cc3)sc21 | -23 | -23 | -0.1 | / | /
O=C(CNS(=O)(=O)c1ccc(C(=O)N2CCCCC2)cc1)N1CCCCC1 | 8 | -9 | 3.7 | 3% | -6 | Arbovirus inh repeat=2
Cc1cccn2c(=O)c3cc(C#N)c(=NC(=O)c4cccs4)n(CCCOC(C)C)c3nc12 | / | / | -344 | -6% | 2

This is a subset; the hit share may differ from the screen's.
